HNF4A DNA FP = change in binding of human HNF4A to DNA, primary screen, biochemical, fluorescence polarization, FITC-DNA; AID 1224865, 2016; Hepatocyte nuclear factor 4-alpha (Homo sapiens), P41235; activity change, % at 10 µM; actives 0.3% (n = 360,000); 1 h; in the data active = activity change above about 30%, passing the limit was not always enough;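 also: controls were the assay level and a saturating level of protein; the project sought stronger binding though the title names inhibitors; some compounds called inactive have numbers as strong as hits; positive values seem to mean higher polarization but the record does not say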
ALR inh = inhibitors of human ALR sulfhydryl oxidase, primary screen, biochemical, H2O2 detection, HRP-luminol luminescence, single point | FAD-linked sulfhydryl oxidase ALR (Homo sapiens), P55789 | purified ALR, DTT oxidation | inhibition, % (concentration not given with the values) | actives 3.8% (n = 290,000) | AID 485317, 2010;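 active = mean and each replicate at 75% or more; inconclusive = only one of the two met; inactive = neither met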;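 also: stock transfer was 7.5 nL into about 7.5 µL; 0% = neutral wells and 100% = wells with inactivated enzyme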
RanGTP-Impb inh = inhibitors of RanGTP-importin-beta interaction, primary screen, biochemical, FRET, CFP-Ran, YFP-importin-beta, homogeneous; inhibition, % (test concentration not listed); cell-free CFP-Ran/YFP-importin-beta FRET ratio; actives 1.1% (n = 300,000); Ran GTPase (GTP-bound) - importin-beta complex;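 active = most replicates above 15%; inconclusive = exactly half above 15%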;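 also: 0% = DMSO wells and 100% = Ran loaded with GDP instead of GTP; wells of about 40 µL received 100 nL stock; the first replicate is given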
Vif A3G = inhibitors of Vif binding to APOBEC3G peptide, primary screen, biochemical, TR-FRET, GST-Vif 1-94, biotin-A3G peptide, dose response retest (AID 1117319) | Virion infectivity factor (Human immunodeficiency virus type 1 group M subtype B (isolate … | TR-FRET GST-Vif / biotin-A3G peptide binding; higher % means a stronger effect; test concentration not given here; strong numbers were not always called active | one-dose inhibition, %; IC50 in µM for titrated hits | actives 0.57% (n = 260,000);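 active = above the screen mean plus three standard deviations and confirmed in dose response; inconclusive = results disagree or hit not tested in dose response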;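 also: Vif residues 1-94 fused to GST binding biotinylated APOBEC3G peptide 110-148; 0% = full assay without inhibitor and 100% = GST in place of GST-Vif; retest series ran down from 100 µM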
Calb FLC = C. albicans growth inhibition with fluconazole, primary screen, CaCi-2 strain, Alamar Blue fluorescence. C. albicans CaCi-2 (fluconazole-resistant clinical isolate) + fluconazole, 48 h. growth inhibition, % (test concentration not listed). actives 0.57% (n = 300,000). AID 1979, 2009;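 active = most replicates above 75%; inconclusive = exactly half above 75%; inactive = most below 75%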;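 also: all wells also contain fluconazole at 8 µg/ml as a sub-toxic cotreatment; 0% = median of DMSO wells and 100% = median of geldanamycin control wells; wells of about 8 µL received 7.5 nL stock; the first replicate is given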
B2AR ag = beta2AR agonists driving receptor internalization, primary screen, cell-based, FAP fluorogen, flow cytometry | Beta-2 adrenergic receptor (Homo sapiens), P07550 | actives 0.43% (n = 340,000) | Am2.2-beta2AR cells; reference of the scale not given here | response, % (test concentration not listed) | AID 504454, 2011;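 active = response above a set limit, near 3 SD of response in nonfluorescent compounds, cut at about 42% in these data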;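 also: stock transfer was 100 nL into about 11 µL; a reference agonist was the positive control; negative values mostly stem from fluorescent compounds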
LANA-H2B inh = blockers of LANA interaction with H2A/H2B – biochemical, FP readout, HTS, primary screen; Protein LANA1 (Human herpesvirus 8 type P (isolate GK18)), Q9QR71; cell-free LANA-H2A/H2B peptide, fluorescence polarization; inhibition, % (test concentration not listed); actives 0.6% (n = 320,000); AID 2629, 2010; in the data active = inhibition mostly above about 10%, no sharp cut-off; inactive = mostly below about 6.7%;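 also: stock transfer was 7.5 nL into about 10 µL; 0% = median of vehicle wells and 100% = median of positive control wells; one replicate is shown; the record names a cut of 25% in any replicate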
Target sequence (Q9QR71 whole entry, looked up): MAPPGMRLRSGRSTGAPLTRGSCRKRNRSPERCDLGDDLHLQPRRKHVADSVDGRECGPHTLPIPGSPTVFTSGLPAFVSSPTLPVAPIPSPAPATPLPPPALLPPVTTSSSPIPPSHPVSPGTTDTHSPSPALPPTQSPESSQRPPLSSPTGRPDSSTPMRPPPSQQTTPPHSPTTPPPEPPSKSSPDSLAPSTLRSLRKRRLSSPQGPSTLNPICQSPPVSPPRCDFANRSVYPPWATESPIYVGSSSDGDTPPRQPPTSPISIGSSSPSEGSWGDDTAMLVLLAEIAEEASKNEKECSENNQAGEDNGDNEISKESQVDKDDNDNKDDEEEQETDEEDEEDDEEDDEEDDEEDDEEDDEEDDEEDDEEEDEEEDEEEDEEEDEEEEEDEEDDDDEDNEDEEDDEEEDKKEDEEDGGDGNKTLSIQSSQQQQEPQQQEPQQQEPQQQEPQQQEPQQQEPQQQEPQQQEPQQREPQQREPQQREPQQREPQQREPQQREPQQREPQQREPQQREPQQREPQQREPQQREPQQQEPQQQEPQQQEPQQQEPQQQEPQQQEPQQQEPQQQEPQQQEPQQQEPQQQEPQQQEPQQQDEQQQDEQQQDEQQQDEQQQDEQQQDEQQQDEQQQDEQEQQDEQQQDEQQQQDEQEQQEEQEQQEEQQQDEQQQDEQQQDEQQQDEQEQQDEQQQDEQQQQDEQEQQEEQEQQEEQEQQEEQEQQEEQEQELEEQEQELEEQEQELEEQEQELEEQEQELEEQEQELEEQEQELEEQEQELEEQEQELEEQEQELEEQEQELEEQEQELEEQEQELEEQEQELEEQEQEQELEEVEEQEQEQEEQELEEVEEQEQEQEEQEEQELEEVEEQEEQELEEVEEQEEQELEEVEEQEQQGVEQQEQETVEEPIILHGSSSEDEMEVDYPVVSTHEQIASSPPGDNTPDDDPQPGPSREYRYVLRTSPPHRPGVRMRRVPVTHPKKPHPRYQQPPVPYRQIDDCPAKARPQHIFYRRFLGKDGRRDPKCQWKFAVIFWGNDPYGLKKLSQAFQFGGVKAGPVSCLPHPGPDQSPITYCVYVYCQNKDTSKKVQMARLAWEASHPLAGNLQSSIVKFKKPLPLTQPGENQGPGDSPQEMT
Starred values were filed as active, the others as inactive; ? = inconclusive; · = not tested or not shown; & = joins results of further samples.

Results follow in this order: RanGTP-Impb inh	HNF4A DNA FP	Vif A3G	LANA-H2B inh	ALR inh	B2AR ag	Calb FLC
CC(OC(=O)CCC(=O)c1cccs1)C(=O)NC1CCCCC1C (stereo not given)
→ ·	0.6	·	-8.1	·	1.8	·
CCCCN(CCCC)C(=O)C1CC=CCC1C(=O)O (stereo not given)
→ -0.9	-4.5	-6.1%	-0.5	-5.2	3.5	-3.7
O=C(c1cccc(S(=O)(=O)Nc2ccccc2Cl)c1)N1CCC1
→ 0.4	-3.8	-3.5%	-0.3	-13.3	-4.9	5.8
COc1cc(/C=C/C(=O)OCC(=O)NCc2ccco2)cc(OC)c1OC
→ -3.2	-1.2	-4.5%	-4.8	3.5	8.7	4.0
O=c1c2ccccc2oc2c1oc1ccccc12
→ ·	-2.2	-10.6%	·	·	2.7	·
COc1ccc(CN(Cc2ccc(C(=O)O)cc2)C(=S)Nc2ccccc2C)cc1OC
→ 6.1	3.8	·	4.6	·	-0.5	?
Cc1nc([N+](=O)[O-])cn1CC(=O)c1ccc(Br)cc1
→ 0.1	6.8	·	-1.6	-21.4	27.8	-0.4
CN(Cc1c(C(=O)N/N=C/c2cccc(F)c2)nnn1-c1nonc1N)c1ccccc1
→ 1.6	4.5	·	0.3	-1.6	3.1	·
O=C(CNc1cccc(C(F)(F)F)c1)N/N=C/c1cn(-c2ccccc2)nc1-c1ccccc1
→ 3.9	-2.2	14.6%	1.0	-22.8	2.6	1.4
CCCCN(C(=O)C1CCC1)c1c(N)n(Cc2ccccc2)c(=O)[nH]c1=O
→ ·	1.1	-0.9%	1.4	7.8	-7.6	·
CC(=O)c1c(C)[nH]c(C)c1C(C)=O
→ 3.8	0.5	12.2%	5.3	-1.6	-5.1	4.6
CC(C)(C)CC(C)(C)n1nnnc1N
→ ·	-2.5	-3.5%	·	·	-1.0	·
COc1cccc(NC(=O)CN(C)C(=O)c2ccccc2CCc2ccccc2)c1
→ -1.9	5.3	-2.7%	-1.8	-2.2	2.9	-6.4
O=[N+]([O-])c1cccc(NC(=S)N2CCOCC2)c1
→ 68.4*	2.5	·	0.1	·	8.4	-10.7
CC(C)N(Cc1ccccc1)C(=O)c1cccs1
→ -2.5	-1.2	2.3%	0.9	·	4.0	41.2
Cc1nc2nc(C)c(NS(=O)(=O)c3ccc(CC(C)C)cc3)c(=O)n2[nH]1
→ 1.6	-0.1	·	-2.1	·	-3.1	-1.1
COc1ccc(CNC(=O)CCc2c[nH]c3ccccc23)cc1
→ 2.5	4.5	·	2.0	·	2.0	30.5
COc1ccccc1C1C=C(c2ccccc2)Nc2nnnn21 (stereo not given)
→ -2.5	-3.4	·	-0.1	10.4	-11.8	27.7
O=C(Nc1ccc2c(c1)OCO2)c1cc(Cl)ccn1
→ ·	-2.8	·	-2.7	-5.9	1.0	·
Cc1ccc(S(=O)(=O)CC(=O)c2ccc3c(c2)OCCO3)cc1
→ -0.7	-0.9	·	1.8	0.6	-0.4	3.2
Cc1cc2cc3c(cc2nc1SCC(=O)OC(C)C)OCCO3
→ 1.7	-1.7	-28.4%	4.5	·	3.6	5.0
NS(=O)(=O)c1ccc(NC2=CC(=O)C(=O)c3ccccc32)cc1
→ 5.8	2.2	·	-0.8	-9.2	7.2	41.7
CCOC(=O)CNc1ncc([N+](=O)[O-])cc1C#N
→ 19.9*	0.0	·	0.8	-3.3	0.5	7.0
O=C(NCc1ccco1)C(c1cccs1)N(Cc1ccccc1)C(=O)Cn1nnc2ccccc21 (stereo not given)
→ 1.6	2.0	1.4%&-3.0%	-1.6	-7.9	5.1	3.1
CCOc1cc(C=O)ccc1OCCSc1ccc(C)cc1
→ 4.2	2.5	-0.2%	0.1	-1.3	-4.3	14.9
COc1ccccc1Sc1nc(-c2ccccc2)ncc1OC
→ -1.5	0.9	7.9%	-5.1	6.1	5.3	40.3
C/C(=N\NC(=O)c1nnn(-c2nonc2N)c1CN(C)c1ccccc1)c1cccnc1
→ 4.7	2.9	·	3.8	-9.7	-12.4	3.0
CC(=O)c1c(C)[nH]c(C(=O)OCC(=O)C(C)(C)C)c1C
→ 4.6	0.9	68.5%	5.3	-5.3	0.5	10.2
COc1ccc(-c2nncnn2)cc1
→ 4.0	·	16.6%	-0.6	-13.6	·	-0.6
O=C(O)C(Cc1ccc(O)cc1)N1C(=O)c2c(Cl)c(Cl)c(Cl)c(Cl)c2C1=O (stereo not given)
→ -1.1	-5.6	·	2.4	35.4	-0.8	-1.2

Four compounds from above, sorted by count of non-hydrogen atoms, lowest first:
Results follow in this order: RanGTP-Impb inh	HNF4A DNA FP	Vif A3G	LANA-H2B inh	ALR inh	B2AR ag	Calb FLC
CC(=O)c1c(C)[nH]c(C)c1C(C)=O
→ 3.8	0.5	12.2%	5.3	-1.6	-5.1	4.6
CC(=O)c1c(C)[nH]c(C(=O)OCC(=O)C(C)(C)C)c1C
→ 4.6	0.9	68.5%	5.3	-5.3	0.5	10.2
CCOc1cc(C=O)ccc1OCCSc1ccc(C)cc1
→ 4.2	2.5	-0.2%	0.1	-1.3	-4.3	14.9
COc1ccc(CNC(=O)CCc2c[nH]c3ccccc23)cc1
→ 2.5	4.5	·	2.0	·	2.0	30.5

(further entries)
Results follow in this order: RanGTP-Impb inh	HNF4A DNA FP	Vif A3G	LANA-H2B inh	ALR inh	B2AR ag	Calb FLC
COc1ccc(NC(=O)CCCN2C(=O)/C(=C\c3ccco3)SC2=S)cc1
→ 0.2	11.4	?	1.8	·	-2.7	-2.6
CN=C1N(C)C[C@@H]2[C@@H]3C(=O)N(C)C(=O)[C@@H]3[C@](Cc3ccccc3)(C(=O)OC)N12
→ ·	0.8	-3.6%	·	·	-3.0	·
O=C(NCCc1ccccc1)c1n[nH]c(=O)c2ccccc12
→ 4.0	1.7	12.7%	4.8	0.7	3.0	-1.5
COc1ccc(-c2nc(NC(=O)c3cc(C(C)(C)C)nn3C)sc2C)cc1
→ -2.7	-2.5	0.4%	2.4	7.3	29.4	7.3
O=C(CSc1nnnn1-c1ccccc1)Nc1ncc(Cc2cccc(Cl)c2Cl)s1
→ 1.0	3.6	·	-0.9	4.6	3.2	21.8
Cn1c(SCC(=O)NC2CCCCCC2)nnc1-c1cccs1
→ 2.1	4.2	-2.2%	1.3	3.8	-23.1	-2.7
O=C1N/C(=C/c2cccn2-c2ccccc2)C(=O)N1Cc1ccc(F)cc1
→ -3.5	8.1	15.6%	·	·	0.6	21.6
COc1cc(C(=O)O)cc(OC)c1OCc1cc(C(=O)O)oc1C
→ 2.1	-1.6	-0.3%	3.2	-3.9	4.0	5.5
COc1ccc(OC)c(NC(=O)CSc2nnnn2C2CCCC2)c1
→ -1.7	-0.8	1.9%	·	·	-3.8	7.1
COC(=O)CCCCCN1C(=O)NC(C2CC2)C(C(=O)OCc2ccccc2)=C1C (stereo not given)
→ 2.6	1.8	·	-2.4	-16.7	2.5	-11.1
COc1ccc(/C=N/NC(=O)c2ccncc2)cc1CN1CCOCC1
→ -1.0	2.8	?	17.8	-12.7	3.1	-5.7
COc1ccc(NC(=O)CC2C(=O)N(C)C(=S)N2CCc2ccc(F)cc2)cc1 (stereo not given)
→ -2.0	3.5	-6.7%	-1.9	-5.7	5.9	-16.4
COc1ccc(NC(=O)NNC(=O)C(O)(c2ccccc2)c2ccccc2)cc1
→ 1.7	-6.7	·	2.7	7.0	-2.0	4.0
Cc1cc(C)c2nc(NCc3ccccc3O)sc2c1
→ -2.9	-0.5	-3.9%	-0.9	-6.8	2.4	10.2
Cc1ccc(S(=O)(=O)N2CCN(C(=O)c3cccs3)CC2)c(C)c1
→ -0.1	0.7	4.2%	9.7	5.6	6.6	-5.6
Cc1cc(-c2ccccc2)c2ccc(NC(=O)C(C)(C)C)nc2n1
→ 0.4	4.1	·	-2.5	-2.4	-2.3	26.5
O=[N+]([O-])c1ccc(F)cc1F
→ ·	0.5	·	51.5*	-0.1	-8.5	·
O=C(COc1nc2ccccc2nc1N1CCOCC1)NC1CCCCC1
→ 1.5	-0.7	·	-0.5	-5.6	-1.6	-8.6
Cc1ccc(C)c(S(=O)(=O)N2CCN(CC(=O)N3CCc4ccccc4C3)CC2)c1
→ 3.3	2.0	-3.3%&6.1%	0.9	·	-4.1	14.4
CC1CCN(C(=O)COC(=O)c2ccc(Cl)nc2)CC1
→ ·	0.0	·	-2.0	0.7	-5.8	·
CCOc1cc(/C=N/Nc2nc(-c3cccc(S(=O)(=O)N4CCCC4)c3)cs2)ccc1O
→ ?	1.4	13.7%	-3.1	-0.5	18.8	-1.4
CCOC(=O)Cc1csc(NC(=O)Nc2ccc(Cl)cc2)n1
→ -0.8	2.5	-12.5%	-2.2	7.8	2.4	-6.0
COc1ccc(CNC(=O)[C@@H](NC(=O)C2CCN(S(=O)(=O)c3ccccc3)CC2)C(C)C)cc1
→ 2.1	0.9	·	-0.4	-4.8	-2.9	2.3
CSc1cccc(NC(=O)c2ccc(CN3CCc4ccccc4C3)cc2)c1
→ -5.4	-1.6	-5.0%	4.3	7.3	8.0	-14.7
COC(=O)c1ccccc1NC(=O)Cn1cnc2c(cnn2-c2ccccc2)c1=O
→ -1.6	-1.9	0.8%	0.7	-2.4	-2.8	-7.7
COc1cccc(-c2nnc(SCC(=O)Nc3cc(C)ccc3OC)n2N)c1
→ 9.0	4.5	3.9%	0.6	-6.7	-2.0	-16.9
O=C(COc1ccc(/C=C2/NC(=O)NC2=O)cc1)Nc1ccc(F)cc1
→ 4.8	-0.7	·	0.5	-1.9	14.6	-0.2
O=c1[nH]c(SCc2cccc(Cl)c2)nc2c1CCCC2
→ -1.9	2.7	?	0.1	1.0	11.4	-3.9
COC(=O)c1sc(NC(=O)c2c(F)cccc2F)c(C#N)c1C
→ 0.8	-2.2	-1.8%	2.2	?	-10.0	19.4
COc1cccc(-c2c(-c3cc(OC)cc(OC)c3)n(C)c3ccc(-c4ccc5[nH]ccc5c4)cc23)c1
→ ·	-3.9	·	-4.0	-7.5	-1.3	·
Cc1nn(-c2ccccc2)c2sc(C(=O)N3CCOCC3)cc12
→ -0.2	1.6	17.1%	4.7	-3.7	6.2	16.1
O=S(=O)(NCCOc1ccccc1F)c1cccc(Br)c1
→ ·	1.6	1.2%	-2.7	-4.0	-6.6	·
CS(=O)(=O)c1nc2ccccc2n1Cc1ccccc1
→ 5.6	0.1	2.0%	8.1	·	-3.5	11.3
C=CCNS(=O)(=O)c1cccc(C(C)=O)c1
→ -0.5	1.9	-9.0%	-2.7	-18.4	-1.7	34.8
COc1ccc(-n2c(=S)[nH]c3cc(C(=O)NCCCN4CCOCC4)ccc3c2=O)cc1
→ 8.2	-2.4	·	-8.3	17.6	-6.6	3.3
C=CCSc1nnc(CNS(=O)(=O)c2ccc(C)cc2)n1C
→ -3.9	2.5	-2.5%	-1.5	-7.8	-1.5	3.6
CS(=O)(=O)N1CCC(C(=O)N2CCC(Cc3ccccc3)CC2)CC1
→ 0.1	0.6	1.3%	1.9	0.1	-5.9	-5.9
CCCCn1nnc(NC(=O)Cc2ccc(Cl)cc2)n1
→ -0.8	-2.1	3.7%	-6.5	-12.2	2.5	-12.6

Bioassay records deposited in PubChem BioAssay by several laboratories.
